Screens (PubChem)
VDR inh: vitamin D3 receptor (human) inhibition; P11473; VDR-SRC2-3 peptide fluorescence polarization, 2 h; Potency, µM, inactives show max response, negative = inhibition, most hits filed as inhibitors; 0.93% of 400,000 active; active means well fitted inhibition curve with a large enough effect; inconclusive means small, poorly fitted or top-dose-only effect, or another doubt; inactive means no such curve, though single readings can be large or run the other way; further: series mostly up to about 120 µM
Target sequence (P11473 whole entry, looked up): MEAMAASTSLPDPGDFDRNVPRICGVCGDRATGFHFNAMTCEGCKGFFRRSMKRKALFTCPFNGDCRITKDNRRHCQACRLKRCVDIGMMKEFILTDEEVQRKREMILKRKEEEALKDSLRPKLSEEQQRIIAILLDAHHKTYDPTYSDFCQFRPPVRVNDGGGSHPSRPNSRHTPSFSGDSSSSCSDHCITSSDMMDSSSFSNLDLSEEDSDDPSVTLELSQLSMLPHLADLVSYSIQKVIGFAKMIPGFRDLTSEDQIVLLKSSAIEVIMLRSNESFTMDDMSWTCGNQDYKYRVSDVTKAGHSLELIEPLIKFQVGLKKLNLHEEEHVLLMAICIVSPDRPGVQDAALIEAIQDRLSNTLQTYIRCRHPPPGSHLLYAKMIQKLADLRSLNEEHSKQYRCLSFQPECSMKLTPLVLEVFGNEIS
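Reagent solutions, kept cold and dark, are dispensed first; compounds are then pinned in at 23 nl, plates briefly spun, and incubated 2 h at ambient temperature. Inhibition of VDR–SRC2-3 peptide binding is read by fluorescence polarization.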
* = called active by the depositor; ? = inconclusive; & = joins results of further samples; [ ] = another dose, or the depositor's remark. On the % scale 0 is the no-effect control and ±100 the full control effect; potency means the concentration at half of the fitted maximal effect.

VDR inh	SMILES
5%	COc1cc(C2C3CN(C)CC=C3C(C#N)=C(N)C2(C#N)C#N)ccc1OC(C)C (configuration not stated)
-4%	COc1ccccc1CNC(=O)c1ccc2c(c1)N(Cc1c(F)cccc1Cl)C(=O)CS2
2%	Cc1ccc(C(=O)SC2=NCCS2)cc1
-6%	Cc1cc(C)nc(/N=C2\NC(=O)CC3C(=O)NCCN23)n1 (configuration not stated)
-14%	O=C(O)C(C(=O)O)=C1C2CC3CC(C2)CC1C3
1%	Cc1nn(S(=O)(=O)c2ccc(C(C)C)cc2)c(C)c1S(=O)(=O)N1CCOCC1
45%[activator]	COc1ccc(-c2nc(C(=O)O)cs2)cc1OC
-21%	O=C(c1ccc(Cl)cc1)N1CCCCC(Cl)C1=O (configuration not stated)
3%	S=c1[nH]nc(-c2cccs2)n1/N=C/c1cn(-c2ccccc2)nc1-c1ccccc1
6%	COc1ccc(/C=C2\SC(=S)N(NC(=O)c3csc4c3CCCC4)C2=O)cc1
3%	Cc1ccc(F)cc1NC(=O)CSCc1c(C)noc1C
17%	O=C(NC1CC1)c1ccc(N2CCCCC2)c([N+](=O)[O-])c1
13%	C#CCOCCOCCOCCNc1nc(N2CCN(C(=O)[C@H](CO)n3cc([C@@H](N)C(C)C)nn3)CC2)nc(N2CCN(C(=O)[C@H](CCC(=O)O)n3cc([C@@H](N)CCCCN)nn3)CC2)n1
13%	CS(=O)(=O)Nc1ccc(C(=O)Nc2ccccc2C(=O)NCc2ccco2)cc1
6%	C[C@H](NC(=O)c1ccc2c(c1)OCO2)c1nnc2ccccn12
3%	CC1(C)CC(=O)C(C2=NC3(CCCCCC3)Cc3ccccc32)=C(O)C1
11%	CCOC(=O)CCCNC(=O)CN1C(=O)NC2(CCCCCC2)C1=O
-4%	O=C(NCc1ccccn1)C1CCCN(S(=O)(=O)c2ccccc2)C1 (configuration not stated)
1%	Cc1ccc(Sc2ncccc2C(=O)NCC(c2ccc(F)cc2)N2CCOCC2)cc1C (configuration not stated)
1%	COC(=O)c1ccccc1C(=O)N1CCOCCOCCOCC1
16%	Cc1ccccc1C(=O)Nc1nnc(SCC(=O)NC2CC2)s1
-23%	CCc1ccccc1NC(=O)c1nnn(Cc2ccc(Cl)cc2)c1N
3%	CC(=O)c1cccc(NC(=O)N2C3CCC2CC(NC(=O)C2CC2)C3)c1 (configuration not stated)
-6%	C=CCn1c(SCC(=O)Nc2ccccc2F)nc2ccccc2c1=O
-10%	COc1ccc2c(c1)c(CC(=O)Nc1ccccc1OC)c(C)n2C(=O)c1ccc(Cl)cc1
-12%	CCC1C(=O)N=C(SCC(=O)Nc2cccc3ccccc23)NC1=O (configuration not stated)
0%	CCOC(=O)Cn1c(-c2ccccc2)nc2ccccc2c1=O
-13%	O=[N+]([O-])c1ccc(N2CCN(C(=S)Nc3ccccc3)CC2)cc1
13%	CCOC(=O)c1ccccc1NC(=O)N1CCc2c(sc(C)c2CC)C1c1ccccc1 (configuration not stated)
6%	Cc1c(C#N)c(N)nc2c3c(sc12)NC(=O)CC3c1ccc(F)cc1 (configuration not stated)
1%	Cc1[nH]c2ccccc2c1-c1nc2ccccc2[nH]1
?	C/C(=N/Nc1ncc(Br)cn1)c1ccc(Br)cc1
-1%	COC(=O)c1ccc(CSc2nc3c([nH]c4ccccc43)c(=O)n2-c2ccc(F)cc2)o1
-1%	C=CCn1cnc2sc(C(=O)Nc3ccccc3OC)c(C)c2c1=O
-2%	CCCCC(c1nnnn1CCOC)N1CCN(C)CC1 (configuration not stated)
-8%	CCNc1ncc2nc(-c3cccs3)c(=O)n(Cc3cccs3)c2n1
14%	O=C(NCCCN1CCOCC1)c1cc2c([nH]c3ccccc32)c(-c2cccc(Br)c2)n1
-14%	C1CCc2nnc(-c3nnc4n3CCCCC4)n2CC1
19%	CCCCCn1c(N2CCCC2)nc2c1c(=O)n(C)c(=O)n2C
?	CC(=O)C1=C(O)C(=O)N(c2ccc(Br)cn2)C1c1ccc(Br)cc1 (configuration not stated)
32µM*	Fc1ccc(Nc2ncncc2-c2ccoc2)cc1
22%	O=C(NCc1ccc(Cl)cc1)c1ccc2c(c1)NC(=O)C(CS(=O)(=O)Cc1ccc(F)cc1Cl)N2 (configuration not stated)
1%	CCCCN(CC)S(=O)(=O)c1ccc2c(c1)n(C)c(=O)c(=O)n2C
-13%	COc1ccc(-c2cc(C(F)(F)F)nc(SCC(=O)Nc3ccc4c(c3)OCO4)n2)cc1OC
-21%	Cc1ccccc1C(=O)NC(=S)Nc1ccc2[nH]c(=O)[nH]c2c1
?	CSc1ccccc1OCc1cc(C(=O)N(C)CCn2nc(C)cc2C)no1
-14%	CC(=O)c1ccc(-n2c(CCC(=O)O)ccc2-c2ccc(Cl)cc2)cc1
11%	CC(C)Nc1nnc(Sc2ccc(Cl)cc2[N+](=O)[O-])s1
-14%	COc1ccc2cc(C(=O)C3CCCN(C(=O)CCc4ccccn4)C3)ccc2c1 (configuration not stated)
-15%&3%	Cc1ccc(-n2c(O)c(/C=N/n3cnnc3)c3ccccc3c2=O)cc1

Continued:
VDR inh	SMILES
18%	CCC(C)n1c(/C=C/c2ccccc2)nc2ccccc21 (configuration not stated)
?	CCc1ccc(C(=O)N2CCN(S(=O)(=O)c3sc(C(=O)O)c(C)c3C(=O)O)CC2)cc1
-4%	O=C(NCc1ccccc1Cl)c1cc([N+](=O)[O-])ccc1Cl
-9%	CCN(CC(=O)Nc1c(F)cccc1F)C(=O)C1CCN(c2ncnc3sc(C)c(C)c23)CC1
-6%	CC1CC(C)CN(S(=O)(=O)c2ccc(NC(=O)CCN3C(=O)C4CC=CCC4C3=O)cc2)C1 (configuration not stated)
3%	Cc1ccc(C)c(NC(=O)CN2C(=O)CSc3nc(C)cc(C)c32)c1
?	CS(=O)(=O)Nc1cccc(-c2nccc(-n3ccnc3)n2)c1
0%	CCc1nc(SCC(=O)NCc2ccco2)c2c(=O)n(C)c(=O)n(C)c2n1
-5%	O=C(OC1CCCCC1)c1ccc(NC(=O)C2CCCCC2)cc1
-11%	N#C/C(=C/c1cccn1-c1cccc(C(=O)O)c1)c1ccc(F)cc1
-15%	COc1ccc(OC)c(S(=O)(=O)NCc2cn3c(C)csc3n2)c1
-9%	Cc1ccc(C(=O)Nc2ccccc2N2CCCCC2)cc1[N+](=O)[O-]
4%&-4%	O=C(Nc1c(C(=O)N2CCC(N3CCCCC3)CC2)oc2ccccc12)c1c(F)cccc1F
-3%	Cc1ccc(CN(C)C(=O)CCc2c[nH]c3ccccc23)o1
-7%	COC(=O)c1ccc(CN2CCC(CO)(Cc3ccc(OC)cc3)CC2)cc1
-14%	COc1ncc2nc(-c3ccc(Cl)cc3)c(=O)n(CCc3ccccc3)c2n1
-6%	CCOC(=O)c1nn(-c2ccccc2)c(=O)cc1SC1CCCCC1
5%	CCOc1ccc(N2C(=O)CS(=O)(=O)C23C(=O)N(Cc2cccc(Cl)c2)c2ccccc23)cc1 (configuration not stated)
-17%	CN(C)c1nc(NC2CCC(NC(=O)c3ccc(F)c(F)c3)CC2)nc2ccccc12 (configuration not stated)
-2%	O=C(NNC(=O)c1cnccn1)c1ccc(Cl)cc1
-1%	Nc1nonc1-n1nnc(C(=O)N/N=C/c2ccc3c(c2)OCO3)c1CSc1ccccc1
-5%	Cc1sc2ncnc(SC(C)C(=O)N3c4ccccc4Sc4ccccc43)c2c1C (configuration not stated)
23%	O=C(C1CCCN(S(=O)(=O)c2cccc3nonc23)C1)N1CCC(Cc2ccccc2)CC1 (configuration not stated)
?	NC(=O)c1ccc(-c2c(-c3ccccc3)sc3ccccc23)cc1
10%	COc1ccccc1NC(=O)c1ccccc1NS(=O)(=O)N1CCCC1
-3%	CC1CC(CN)CC(CO)C1 (configuration not stated)
2%	Cc1coc2c(C)c3oc(=O)c(CC(=O)NCc4ccccc4)c(C)c3cc12
?	O=c1[nH]c(=O)c2[nH]c(=S)[nH]c2[nH]1
3%	CC12CN(C(=O)c3ccccc3)C3(C#N)CC1CCC23C (configuration not stated)
-28%	C[C@@]12C(=O)N(CCc3c[nH]c4ccccc34)CC(=O)N1[C@H]1c3ccccc3OC[C@@H]1[C@@H]2c1ccccc1

Given as tab-separated lines: part of the list above.
mol	VDR inh
O=C(NCc1ccccc1Cl)c1cc([N+](=O)[O-])ccc1Cl	-4%
CCN(CC(=O)Nc1c(F)cccc1F)C(=O)C1CCN(c2ncnc3sc(C)c(C)c23)CC1	-9%
CC1CC(C)CN(S(=O)(=O)c2ccc(NC(=O)CCN3C(=O)C4CC=CCC4C3=O)cc2)C1 (configuration not stated)	-6%
Cc1ccc(C)c(NC(=O)CN2C(=O)CSc3nc(C)cc(C)c32)c1	3%
CS(=O)(=O)Nc1cccc(-c2nccc(-n3ccnc3)n2)c1	?
CCc1nc(SCC(=O)NCc2ccco2)c2c(=O)n(C)c(=O)n(C)c2n1	0%
O=C(OC1CCCCC1)c1ccc(NC(=O)C2CCCCC2)cc1	-5%

Returning to the listing; the 5 compounds before the break are reprinted first.
VDR inh	SMILES
-3%	CC1CC(CN)CC(CO)C1 (configuration not stated)
2%	Cc1coc2c(C)c3oc(=O)c(CC(=O)NCc4ccccc4)c(C)c3cc12
?	O=c1[nH]c(=O)c2[nH]c(=S)[nH]c2[nH]1
3%	CC12CN(C(=O)c3ccccc3)C3(C#N)CC1CCC23C (configuration not stated)
-28%	C[C@@]12C(=O)N(CCc3c[nH]c4ccccc34)CC(=O)N1[C@H]1c3ccccc3OC[C@@H]1[C@@H]2c1ccccc1
-14%	O=C(N/N=C/c1ccc(Br)s1)c1ccccn1
11%	Cc1csc2ncc(C(=O)NCCc3ccccc3)c(=O)n12
-3%	Cc1cc(C)cc(OCC(=O)Nc2ccccc2C(=O)N2CCOCC2)c1
2%	CCOC(=O)C1CCN(Cc2nc3ccccc3c(=O)n2-c2ccc(OCC)cc2)CC1
21%	Cn1nc(-c2ccc(OCC(=O)Nc3cccnc3)cc2)c2ccccc2c1=O
5%	COc1ccnc(N=CNOCc2ccc(F)cc2Cl)c1C#N
-24%	O=C(CCC(=O)N1CCOCC1)NCCc1ccc(F)cc1
4%	O=C(Nc1ccc2ccccc2c1)c1ccc2[nH]c(=O)c(=O)[nH]c2c1
-10%	Cc1ccc(C(=O)CSc2nnc(-c3ccco3)n2CC2CCCO2)cc1 (configuration not stated)
4%	CN1CCN(/N=C/c2nc(-c3cccc([N+](=O)[O-])c3)n3ccccc23)CC1
14%	O=S(=O)(NCC(c1ccco1)N1CCOCC1)c1cc(F)ccc1F (configuration not stated)
19%	CCn1c2ccccc2c(=O)c2ccccc21
17%	Cc1ccc2[nH]c3c(NCCN4CCOCC4)ncnc3c2c1
-17%	O=C(Nc1nc2ccsc2c(=O)s1)c1ccc(F)cc1Cl
7%	COc1ccc(C(=O)NCC(=O)OCC(=O)Nc2ccc(C)c(S(=O)(=O)N(C)C)c2)cc1OC
-6%	CN(CC(=O)NCc1ccco1)CC(=O)Nc1cc(S(C)(=O)=O)ccc1Cl
-22%	O=C(CN1c2cccc3cccc(c23)S1(=O)=O)Nc1cccc(S(=O)(=O)N2CCOCC2)c1
9%	Cc1ccccc1CC1C(=O)Nc2ccc(Br)cc21 (configuration not stated)
17%	COc1ccc2c(c1)c1c(c(=O)n(-c3ccccc3C)c(=O)n1Cc1ccccc1C)n2C
7%	N#CC1(Nc2ccc(S(N)(=O)=O)cc2)CCCC1
12%	CN(C(=O)c1cccc(C(=O)N(C)c2ccccc2)c1)c1ccccc1
4%	CC(C)[C@H](NC(=O)c1ccco1)C(=O)OCC(=O)NC12CC3CC(CC(C3)C1)C2
-17%	CCN(C(=O)CSc1nc2ccc([N+](=O)[O-])cc2s1)c1c(N)n(Cc2ccccc2)c(=O)[nH]c1=O
?	CC(=O)n1cc(N(C(=O)CCl)c2ccc(C)cc2)c2ccccc21
-10%	Cc1ccc(C(=O)C(C)OC(=O)c2ccc(Cl)nc2)cc1 (configuration not stated)
15%	NC(=O)NC(=O)COC(=O)CNS(=O)(=O)c1ccc(F)c(F)c1F
-8%	Cc1ccc(-c2nc(CS(=O)CC(=O)NC(C)CCc3ccccc3)c(C)o2)cc1 (configuration not stated)
-6%	CCCN1CCN(CC(=O)NCC(=O)Nc2cccc(C)c2C)CC1
-7%	CSC1=NNC(c2ccc(C(C)(C)C)cc2)=NN1
-5%	CN1CCN(C2CCN(S(=O)(=O)c3ccc(C(C)(C)C)cc3)CC2)CC1
3%	C=C(C)CN1C(=O)C(=O)N(CC(=C)C)C1=O
-22%	Cc1cc(=O)[nH]c(SCc2cccc3cccnc23)n1
-11%	CCOC(=O)C1=C(c2ccccc2)NC(=S)NC1c1ccc(C)c([N+](=O)[O-])c1 (configuration not stated)
-4%	Cn1c(CSCc2ccc(F)cc2)nnc1SCC(=O)N1CCN(c2ccccc2)CC1
16%	COc1ccc(C(=O)NCCN2CCOCC2)cc1S(=O)(=O)Nc1ccc(C)cc1
-15%	CCOC(=O)C1(Cc2ccccc2Cl)CCN(C(=O)CCn2ccnc2C)CC1
-22%	O=c1c2c(-c3ccc([N+](=O)[O-])cc3)csc2nc2n1CCCCC2

3 consecutive entries already listed:
VDR inh	SMILES
3%	C=C(C)CN1C(=O)C(=O)N(CC(=C)C)C1=O
-22%	Cc1cc(=O)[nH]c(SCc2cccc3cccnc23)n1
-11%	CCOC(=O)C1=C(c2ccccc2)NC(=S)NC1c1ccc(C)c([N+](=O)[O-])c1 (configuration not stated)

This is a subset, so the mix of outcomes need not match the whole.
